# From PubChem BioAssay
# B2AR ag: human beta-2 adrenergic receptor agonism by FAP | response, % (test concentration not listed) | 0.43% of 340,000 active | P07550 | Am2.2-beta2AR cells, FAP receptor internalization, flow cytometry; reference of the scale not given here;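 active = response above a set limit, near 3 SD of response in nonfluorescent compounds, cut at about 42% in these data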;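 also: stock transfer was 100 nL into about 11 µL; a reference agonist was the positive control; negative values mostly stem from fluorescent compounds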
# A1 inh: inhibitors of the anti-apoptotic protein A1, read as caspase activation; AID 2462; caspase activation, % (no concentration beside the values); 0.066% of 330,000 active; MEF A1-2A-BIM cells, Caspase-Glo 3/7 luminescence, 3 h; percent of clofoctol response, vehicle zero;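 active = over half of replicate activation scores above 10%, or exactly half above 10 with the replicate mean above 10; inconclusive = replicate mean below 10 yet half the replicates above 10; inactive = over half of replicates below 10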;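 also: wells of about 30 µL received 50 nL stock; many hits fall short of the cut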
# Beta cell apopt: blocks beta cell apoptosis. INS-1E cytokine-induced death, ATP luminescence, 48 h; percent of positive-control rescue, neutral wells zero. protection from apoptosis, % (no concentration beside the values). 0.8% of 300,000 active. AID 435005;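 active = all replicates at 75% or more, or half of them and the mean; inconclusive = half reach 75% but not the mean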;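 also: 0% = cytokine-treated negative control wells and 100% = positive control rescue; higher means more ATP so stronger rescue from cytokine killing; wells of about 40 µL received 100 nL stock; the first replicate is given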
# UCH37 inh: blocks the human deubiquitinase UCH37 | purified proteasome/UCH37, Ub-AMC cleavage fluorescence | inhibition, % (test concentration not listed) | 0.33% of 330,000 active | AID 588478;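 active = mean of two replicates above 20%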;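 also: 0% = compound-free wells with enzyme and 100% = wells lacking proteasome; stock transfer was 100 nL into about 20 µL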
#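 System: Proteasome-associated human UCH37 deubiquitinase; Input: 0.15 nM proteasome in added enzyme buffer; Also added: Ub-AMC substrate from 1 µM stock; Incubation: 30 min compound-proteasome preincubation then 25 min substrate reaction, room temperature; Detection: fluorescence, ex 355 nm, em 460 nm; Read-out: % inhibition of Ub-AMC cleavage fluorescence; Benchmarks: no-proteasome and no-compound wells.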
# LANA-H2B inh: blocks KSHV LANA binding to histone H2A/H2B; 0.6% of 320,000 active; inhibition, % (no concentration beside the values); Q9QR71; cell-free LANA-H2A/H2B peptide, fluorescence polarization; in the data active = inhibition mostly above about 10%, no sharp cut-off; inactive = mostly below about 6.7%;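 also: stock transfer was 7.5 nL into about 10 µL; 0% = median of vehicle wells and 100% = median of positive control wells; one replicate is shown; the record names a cut of 25% in any replicate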
# Target sequence (Q9QR71 whole entry, looked up): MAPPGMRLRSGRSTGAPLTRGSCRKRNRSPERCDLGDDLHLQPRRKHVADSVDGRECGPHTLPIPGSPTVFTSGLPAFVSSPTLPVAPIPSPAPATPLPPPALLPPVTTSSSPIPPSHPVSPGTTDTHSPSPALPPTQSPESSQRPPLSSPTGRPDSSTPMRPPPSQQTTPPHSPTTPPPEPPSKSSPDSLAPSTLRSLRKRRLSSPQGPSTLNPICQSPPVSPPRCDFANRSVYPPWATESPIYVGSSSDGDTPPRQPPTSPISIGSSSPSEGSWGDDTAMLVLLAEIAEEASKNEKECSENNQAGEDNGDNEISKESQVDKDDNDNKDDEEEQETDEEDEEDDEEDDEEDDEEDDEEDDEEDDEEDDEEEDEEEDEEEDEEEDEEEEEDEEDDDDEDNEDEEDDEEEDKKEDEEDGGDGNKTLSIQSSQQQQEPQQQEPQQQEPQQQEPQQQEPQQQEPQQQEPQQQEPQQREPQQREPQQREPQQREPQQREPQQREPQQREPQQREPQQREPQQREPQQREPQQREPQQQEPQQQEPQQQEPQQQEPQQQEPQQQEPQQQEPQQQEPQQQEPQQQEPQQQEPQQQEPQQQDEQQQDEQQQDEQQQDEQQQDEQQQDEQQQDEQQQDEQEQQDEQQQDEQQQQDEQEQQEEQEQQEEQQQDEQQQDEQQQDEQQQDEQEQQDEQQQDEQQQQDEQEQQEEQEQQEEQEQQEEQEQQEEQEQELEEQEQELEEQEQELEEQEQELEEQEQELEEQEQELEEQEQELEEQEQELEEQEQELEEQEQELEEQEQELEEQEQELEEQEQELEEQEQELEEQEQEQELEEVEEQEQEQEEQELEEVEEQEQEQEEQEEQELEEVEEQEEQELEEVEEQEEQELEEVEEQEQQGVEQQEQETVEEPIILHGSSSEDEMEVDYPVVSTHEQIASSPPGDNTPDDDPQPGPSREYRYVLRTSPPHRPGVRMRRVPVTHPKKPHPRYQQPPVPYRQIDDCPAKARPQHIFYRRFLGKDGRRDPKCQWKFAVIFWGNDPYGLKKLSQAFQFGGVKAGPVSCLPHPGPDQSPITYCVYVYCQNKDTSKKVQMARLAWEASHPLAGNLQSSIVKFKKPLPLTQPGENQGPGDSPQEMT
# RanGTP-Imp inh: inhibitors of RanGTP-importin-beta interaction, primary screen, biochemical, FRET, CFP-Ran, YFP-importin-beta, homogeneous; cell-free CFP-Ran/YFP-importin-beta FRET ratio; inhibition, % (concentration not given with the values); 1.1% of 300,000 active; AID 2216;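 active = most replicates above 15%; inconclusive = exactly half above 15%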;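 also: 0% = DMSO wells and 100% = Ran loaded with GDP instead of GTP; wells of about 40 µL received 100 nL stock; the first replicate is given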
# Calb FLC: C. albicans growth modulation with fluconazole; C. albicans CaCi-2 (fluconazole-resistant clinical isolate) + fluconazole, Alamar Blue growth, 48 h; growth inhibition, % (concentration not given with the values); 0.57% of 300,000 active;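 active = most replicates above 75%; inconclusive = exactly half above 75%; inactive = most below 75%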;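 also: all wells also contain fluconazole at 8 µg/ml as a sub-toxic cotreatment; 0% = median of DMSO wells and 100% = median of geldanamycin control wells; wells of about 8 µL received 7.5 nL stock; the first replicate is given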
# T cruzi repl: T. cruzi replication inhibition; T. cruzi beta-gal in NIH3T3, luminescence, 90 h; 1.4% of 300,000 active; inhibition, % (no concentration beside the values);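 active = mean inhibition across valid replicates above about 55%, limit read from the data; inconclusive = mean below that limit but half or more replicates reach it; inactive = mean below it, under half of replicates reach it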;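 also: signal also drops with host cell toxicity which is not excluded here; 0% = plate median of DMSO wells and 100% = zero luminescence signal; higher percent means less beta-gal luminescence so fewer parasites; stock transfer was 50 nL into about 50 µL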
# * hit, by the source's call; ? = inconclusive; . = not tested or not shown.
# Start of the listing, in advance (four entries):
SMILES,B2AR ag,A1 inh,Beta cell apopt,UCH37 inh,LANA-H2B inh,RanGTP-Imp inh,Calb FLC,T cruzi repl
Cc1[nH]c2c(C(=O)N3CCCC(CCC(=O)NCc4ccccc4F)C3)cccc2c1C (stereo unspecified),-1,0.4,2,1.5,-2.6,2.2,43,14
C/C=C/c1ccc(OCCCCNCc2ccco2)c(OC)c1,10,0.4,-3,0.4,3.2,6.3,-3,12
Nc1nonc1/C(=N/O)N1CCCC1,-2,0.6,5,.,5.0,0.5,-2,-8
COc1ccc(CCNC(=O)/C=C/c2ccc(C)cc2)cc1OC,5,-1.8,-1,1.9,6.1,5.3,2,-5

# Main list, from the first entry:
SMILES,B2AR ag,A1 inh,Beta cell apopt,UCH37 inh,LANA-H2B inh,RanGTP-Imp inh,Calb FLC,T cruzi repl
Cc1[nH]c2c(C(=O)N3CCCC(CCC(=O)NCc4ccccc4F)C3)cccc2c1C (stereo unspecified),-1,0.4,2,1.5,-2.6,2.2,43,14
C/C=C/c1ccc(OCCCCNCc2ccco2)c(OC)c1,10,0.4,-3,0.4,3.2,6.3,-3,12
Nc1nonc1/C(=N/O)N1CCCC1,-2,0.6,5,.,5.0,0.5,-2,-8
COc1ccc(CCNC(=O)/C=C/c2ccc(C)cc2)cc1OC,5,-1.8,-1,1.9,6.1,5.3,2,-5
O=C(CCN1C(=O)C2C3C=CC(C3)C2C1=O)NCC1CCCO1 (stereo unspecified),15,-1.0,8,2.8,-6.8,-5.7,-8,-14
Cc1cnc(CNC(=O)c2ccc3oc(C(C)C)nc3c2)[nH]1,0,-0.5,-4,2.1,1.7,?,7,0
COc1ccc(OCCCSc2ncccn2)cc1,-4,-0.8,-2,-3.0,-4.0,-0.9,0,-5
C=CCN1C2CCCC1CC(NC(=S)Nc1ccc(Cl)cc1)C2 (stereo unspecified),5,-0.1,-2,5.2,-6.9,?,-7,8
CCOC(=O)N1CCC(NC(=O)c2ccc3c(c2)N(Cc2ccc(C)cc2)CCS3)CC1,14,1.6,0,-43,0.5,-0.1,4,37
CCOC(=O)CNC(=O)C1CCCN(c2ncccn2)C1 (stereo unspecified),0,0.3,-4,-0.6,0.5,21*,3,-6
CC(Sc1ccc([N+](=O)[O-])cn1)C(=O)Nc1nccs1 (stereo unspecified),-21,-0.8,-2,.,-2.7,-2.8,-7,-2
N#Cc1nc(-c2ccc(Cl)cc2)oc1N1CCCCC1,-12,1.3,3,-337,-2.1,5.5,4,23
CC1=C(C)C(=O)C(N2CCOCC2)=CC1=O,1,.,.,7.2,.,-1.7,-9,-13
CCCCN(C)C1CCN(C(=S)Nc2cccc(SC)c2)CC1,-11,1.1,-9,3.5,2.7,-0.9,-3,44
CCc1ccc(CNC(=O)C2CCN(c3nnc(C)c4c(C)n(-c5ccc(C)cc5)nc34)CC2)cc1,40,1.4,59,-70,-3.5,5.2,3,37
CN(C)CCNC(=O)C(=O)NCC1OCCN1S(=O)(=O)c1cc(F)ccc1F (stereo unspecified),-4,1.4,-2,1.7,-5.1,1.8,5,-3
Cc1cc([N+](=O)[O-])nn1CC(=O)Nc1ccccn1,-1,0.5,-7,2.6,-3.4,-1.4,-12,-7
Fc1cccc(Nc2nc(Cl)nc(Cl)n2)c1,-12,-0.1,-1,.,-0.9,-0.2,9,-14
CCc1nnc(NC(=O)Cn2nc(-c3ccccc3OC)ccc2=O)s1,-5,-0.2,-3,0.6,2.0,-1.7,2,3
O=C(CSc1ccccc1)NNC(=O)c1ccccc1O,-7,-0.6,-6,-9.8,-9.3,2.9,-9,3
CCCCn1c(=O)nc2n(-c3ccccc3C)c3ccccc3cc-2c1=O,-2,1.1,10,-456,0.0,130*,-11,-17
COc1ccc(N2C(=O)C3CCCN3C2c2ccccc2)cc1Cl (stereo unspecified),1,-0.9,.,0.3,1.9,-0.7,-1,-15
N=c1ccn2c(n1)OC1C(O)C(CO)OC12 (stereo unspecified),-8,0.5,11,.,-6.5,3.2,0,-63
COc1cccc(C(=O)Nc2cccc(-c3nnc(-c4ccccc4)o3)c2)c1,4,-2.1,3,0.8,0.2,0.1,9,26

# Record cards (already shown). Values in the order: B2AR ag, A1 inh, Beta cell apopt, UCH37 inh, LANA-H2B inh, RanGTP-Imp inh, Calb FLC, T cruzi repl
# CN(C)CCNC(=O)C(=O)NCC1OCCN1S(=O)(=O)c1cc(F)ccc1F (stereo unspecified) is entered as -4, 1.4, -2, 1.7, -5.1, 1.8, 5, -3
# N=c1ccn2c(n1)OC1C(O)C(CO)OC12 (stereo unspecified) is entered as -8, 0.5, 11, ., -6.5, 3.2, 0, -63
# CCCCN(C)C1CCN(C(=S)Nc2cccc(SC)c2)CC1 is entered as -11, 1.1, -9, 3.5, 2.7, -0.9, -3, 44

# Next results follow:
SMILES,B2AR ag,A1 inh,Beta cell apopt,UCH37 inh,LANA-H2B inh,RanGTP-Imp inh,Calb FLC,T cruzi repl
COc1ccc2ccccc2c1CNC(=O)CC1C(=O)NCCN1CC(C)C (stereo unspecified),-22,0.3,-1,-0.4,0.3,2.5,-1,11
Fc1ccccc1-n1[nH]nnc1=S,2,-1.8,-12,3.0,6.4,-2.7,0,-15
Cc1cc(C)c(S(=O)(=O)Nn2cnnc2)c(C)c1,-1,0.1,0,-0.8,0.9,-0.7,1,2
O=C(Nc1ccccc1C(F)(F)F)c1ccc(F)c(S(=O)(=O)N2CCOCC2)c1,7,0.7,1,4.1,0.6,?,0,-21
CCc1ccc(NC(=O)CNC(=O)Cn2ccc3ccccc3c2=O)cc1,-9,1.1,-1,-1.3,-2.3,-5.8,-7,-9
COC(=O)c1ccc(-n2c(CCC(=O)O)ccc2-c2ccc(C)cc2)cc1,2,0.0,-3,-1.1,-3.1,3.9,-6,-10
O=[N+]([O-])c1c(Nc2ccc(O)cc2)cc(N2CCOCC2)c2nonc12,-15,-0.3,9,3.5,0.3,-1.7,-11,-17
Cc1[nH]c(C)c(S(=O)(=O)N(C)Cc2ccccc2)c1C(=O)N1CCCC1,0,-0.1,-2,5.1,1.3,2.0,3,-8
COC(=O)C(C(=O)OC)c1ccc(N)cc1,-1,-0.1,3,.,2.4,0.0,0,-12
O=C(NC1CC1)C1CC(=O)N(c2ccc(F)cc2)C1 (stereo unspecified),-6,0.0,0,2.4,-0.2,-0.3,3,6
CC(SC(=S)N1CCOCC1)C(=O)O (stereo unspecified),5,1.6,1,0.3,-4.3,0.9,-7,-13
CC1CCCCC1NC(=O)COC(=O)Cc1ccc(Br)cc1 (stereo unspecified),-4,1.3,3,1.1,-2.1,2.7,-3,-4
COc1cc(NC(=O)Cc2ccc(Cl)cc2)ccc1NC(=O)c1ccco1,-17,0.9,5,-61,-0.4,0.0,-7,15
O=C(NCc1ccc(Cl)cc1)C1CCN(c2cnccn2)CC1,-1,1.8,-5,-3.3,-0.8,5.9,-1,23
O=C(c1cccc(Cl)c1)N1CCN(C(=O)c2ccccc2F)CC1,-7,0.6,.,-2.1,2.7,-3.2,6,-1
COc1ccc(C2=CC(=O)C[C@H](c3ccc(F)cc3)C2)cc1F,-4,-0.8,-1,-2.2,-3.1,.,.,.
CCC/C(O)=C1\C(=O)CC(C)(C)CC1=Nc1ccccc1OC,-4,0.4,-1,4.5,3.8,-1.5,?,6
CN1C(=O)C2(NCCc3c2[nH]c2ccccc32)c2ccccc21 (stereo unspecified),-1,-0.1,-6,4.0,-0.7,4.6,3,-19
O=C(O)CCC(=O)N1c2ccccc2NC2=C(C(=O)CC(c3ccc(F)cc3)C2)C1c1ccc([N+](=O)[O-])o1 (stereo unspecified),-3,-0.2,-4,8.6,-1.3,2.7,-9,3
Cc1ccc(O)c(C(CC(=O)N2CCCC2)c2ccccc2)c1 (stereo unspecified),-1,0.6,-2,4.4,1.0,-0.9,9,13
Cc1ccc(C(C(=O)NCc2ccco2)N(CC2CCCO2)C(=O)Cn2nnc3ccccc32)cc1 (stereo unspecified),8,1.2,-11,-0.3,-1.0,-1.9,-4,12
Cc1ccc(NC(=O)N2CCc3ccccc3C2)cc1C,-2,-0.6,1,7.5,2.8,-1.3,-25,-10
c1ccc(-n2ncc3c2ncn2cnnc32)cc1,-5,-0.5,-5,0.6,3.0,-1.7,-1,-6
CC(NC(=O)Nc1ccc([N+](=O)[O-])cc1)C(c1cccs1)N1CCCC1 (stereo unspecified),4,-0.3,-7,12,-4.2,-4.3,-22,0
CNC(=S)NN(c1ccccc1)c1ccccc1,-1,-0.4,6,2.8,-2.1,1.5,1,-3
COC(=O)c1cc(S(=O)(=O)N2CCC(C)CC2)cn1C,1,0.2,3,3.7,-1.6,5.5,0,0
O=C(c1ccco1)N1CCN(S(=O)(=O)c2cc(Cl)ccc2Cl)CC1,-1,1.0,.,0.1,5.9,1.5,6,4
COc1ccc(S(=O)(=O)Nc2cccc3c2O[C@H](CN(C)C)[C@@H](C)CN([C@H](C)CO)C3=O)cc1,-18,-0.4,-9,7.2,2.7,.,.,.
CCOC(=O)N1CCN(C(=O)c2ccc(NC(=O)c3ccc(C)cc3)cc2)CC1,-10,-0.7,0,2.1,0.0,?,-5,-12
C[C@H](NC(=O)c1nc[nH]c1C(=O)N1CCc2ccccc2C1)C(=O)OCc1ccccc1,6,1.5,3,1.6,1.3,-3.0,-13,-10
Cc1ccc(S(=O)(=O)N2CCCCC2CCNC(=O)C(=O)NCc2ccco2)cc1 (stereo unspecified),-16,-0.9,10,3.5,.,-4.5,-11,-13
CCOC(=O)c1nn(-c2ccccc2)c(=O)cc1OCC(=O)Nc1cccc(OC)c1,12,0.6,0,-1.6,.,0.0,-15,-8
CC1CN=C(N(C(=O)Nc2ccccc2)C(C)c2ccccc2)S1 (stereo unspecified),-1,-2.1,-9,10,-2.3,?,-7,-18
O=C(CSc1nnc(CNC(=O)c2ccccc2)o1)c1ccc(Cl)cc1,-15,-0.5,-7,5.0,0.0,-2.7,-3,7
CC(=O)N1c2ccc(S(=O)(=O)N(C)c3cc(C)ccc3C)cc2CC1C (stereo unspecified),3,0.6,-3,-7.8,1.6,-1.4,-4,-6
CCN(CC(N)=O)S(=O)(=O)c1ccc(F)cc1,8,0.6,-4,3.9,-5.3,-1.0,0,-14
N#CCCNS(=O)(=O)c1ccc(C(=O)OCC2CCCCC2)cc1,0,-0.3,-4,2.1,0.4,?,0,-4
COc1cc(OC)c(OC)cc1/C=C/c1cc(C(F)(F)F)[nH]c(=O)n1,7,2.5,-14,.,-1.6,-4.1,1,-18
COc1cc(/C=C/C(=O)OCC(=O)N2CCC(C)CC2)ccc1OCC#N,-6,0.1,-5,-18,-2.5,.,.,.
Cc1ccc(SCC(=O)N2CCCC2)cc1,9,0.1,.,0.4,-2.3,-1.1,-8,1
CCOC(=O)C1=C(C)NC(C)=C(C(=O)OCC)C1c1nc2ccccc2[nH]1,.,1.7,-7,-65,-0.2,-0.8,-4,0
CN(CCCN1CCOCC1)Cc1cn(C)nc1-c1ccccc1F,1,0.6,-2,0.3,1.0,0.6,?,-4
CCc1ccc(NC(=O)COC(=O)/C=C/c2c(C)nn(C3CCS(=O)(=O)C3)c2Cl)cc1 (stereo unspecified),0,0.9,-2,0.5,7.7,3.4,8,-16
